Screening results from PubChem.
miR-21 reporter – qHTS Assay for Modulators of miRNAs and/orActivators of miR-21; HeLa miR-21 FLuc reporter, luciferase, 48 h; 340,000 tested, under 10 active; AID 2288, 2010; Potency, µM (doses to about 38.3 µM), without a hit: at the top dose reporter change, positive = more light; active = well fitted rising curve with a large enough effect; inconclusive = small, poorly fitted or top-dose-only effect; inactive = no such curve, though single readings can be large or run the other way;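 note: % of control where 0% means no effect; miR-21 action dims this reporter so a rising signal means less miR-21 action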
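Compounds were titrated across several concentrations (up to approximately 40 uM) and incubated 48 hours with HeLa miR-21-FLuc reporter cells (miR-21 target sequence downstream of FLuc, endogenous miR-21). Readout was firefly luciferase luminescence after lytic detection reagent.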
Rango complex inh – qHTS Assay for Inhibitors of Rango (Ran-regulated importin-beta cargo) - Importin beta complex formation; Importin subunit beta-1 (Homo sapiens), Q14974; Rango CFP/YFP FRET sensor + importin beta, 45 min; Potency, µM (highest dose often 92.2 µM), inactives show at the top dose inhibition of complex formation; 0.031% of 340,000 active; AID 540263, 2011; active = rising FRET ratio curve, often small or poorly fitted; inconclusive = mostly compound fluorescence or quenching in the first reads; inactive = flat curves in all reads;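 note: potency is the fitted concentration of half-maximal effect; 0% = DMSO wells and 100% = buffer wells lacking importin beta; nearly all actives have a fitted effect of over 15% in size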
Target sequence (Q14974 whole entry, looked up): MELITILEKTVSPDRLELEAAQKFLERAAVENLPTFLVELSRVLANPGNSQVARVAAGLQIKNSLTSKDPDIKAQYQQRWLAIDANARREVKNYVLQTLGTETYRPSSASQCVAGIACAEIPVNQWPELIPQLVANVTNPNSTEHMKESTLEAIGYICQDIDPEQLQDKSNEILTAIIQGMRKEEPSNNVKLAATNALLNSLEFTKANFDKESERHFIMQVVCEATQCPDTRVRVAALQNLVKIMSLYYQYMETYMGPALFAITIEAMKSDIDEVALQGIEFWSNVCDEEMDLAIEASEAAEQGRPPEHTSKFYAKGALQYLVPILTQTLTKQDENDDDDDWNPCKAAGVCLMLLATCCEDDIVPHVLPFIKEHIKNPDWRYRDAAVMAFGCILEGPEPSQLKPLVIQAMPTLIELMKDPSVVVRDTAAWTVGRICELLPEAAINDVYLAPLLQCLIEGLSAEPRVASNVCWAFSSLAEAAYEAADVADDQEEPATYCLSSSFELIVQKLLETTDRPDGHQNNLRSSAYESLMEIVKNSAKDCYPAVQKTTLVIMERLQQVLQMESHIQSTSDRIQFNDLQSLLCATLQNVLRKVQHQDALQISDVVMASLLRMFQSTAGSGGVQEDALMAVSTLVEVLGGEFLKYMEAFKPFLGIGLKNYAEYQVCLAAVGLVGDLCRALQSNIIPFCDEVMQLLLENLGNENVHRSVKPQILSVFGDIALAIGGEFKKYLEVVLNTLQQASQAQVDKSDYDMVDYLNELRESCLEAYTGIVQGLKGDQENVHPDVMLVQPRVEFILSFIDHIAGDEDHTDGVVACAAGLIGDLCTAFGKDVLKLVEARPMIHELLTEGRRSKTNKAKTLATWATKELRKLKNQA
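Inhibition scored from the CFP 486 nm/YFP 530 nm FRET ratio 45 min after adding 0.125 microM importin beta to 50 nM Rango biosensor preincubated 5 min with compound (room temperature, PBS with DTT, Tween-20, BSA). No-importin wells as positive control.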
GLA inh pH 4.5 – qHTS Assay for Inhibitors of Human alpha-Galactosidase at pH 4.5; Alpha-galactosidase A (Homo sapiens), P06280; purified enzyme, 4-MU-alpha-Gal fluorescence, pH 4.5; activity change, negative = inhibition, % at 105 µM; 230,000 tested, under 10 active; inconclusive = small, poorly fitted or top-dose-only inhibition, or a rising curve; inactive = flat fitted curve, though single readings scatter; no compound was filed as active;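 note: 0% = full activity with enzyme and -100% = basal without enzyme; dose as in the result columns while the protocol names 77 µM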
Rango dissoc inh – qHTS Assay for Inhibitors of RanGTP induced Rango (Ran-regulated importin-beta cargo) - Importin beta complex dissociation; Snurportin-1 (Homo sapiens) + GTP-binding nuclear protein Ran (Homo sapiens) + Importin …; Biochemical FRET Rango-importin beta, RanGTP-induced dissociation; 0.071% of 340,000 active; Potency, µM (doses to about 46.1 µM), inactives show at the top dose activity change, negative = inhibition; AID 540253, 2011; active means falling FRET ratio curve, often poorly fitted, with flat reads before Ran was added; inconclusive means other falling curves, or compound fluorescence or quenching; inactive means flat or rising ratio curve;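 note: potency is the fitted concentration of half-maximal effect; % of control where 0% means no effect; nearly all actives have a fitted effect of over 45% in size; -100% = wells without RanGTP and RCC1; the record marks most hits as doubtful in a second field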
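Quantitative HTS using a FRET biosensor: 0.1 uM Rango, 0.25 uM importin beta, 0.6 uM Ran, 2 mM GTP, 0.2 uM RCC1 final, PBS with DTT, Tween-20 and BSA. Post-read taken 45 min after Ran addition.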
* hit, by the source's call; ? = inconclusive; / = not tested or not shown; & = joins results of further samples. This is a subset, so the mix of outcomes need not match the whole.

Rango complex inh	GLA inh pH 4.5	Rango dissoc inh	miR-21 reporter	Structure
-4.4%	3	5%	-9%	O=C(/C=C/c1ccco1)OCc1nnc(-c2ccccc2)o1
-4.2%	-10	1%	-1%	Cc1ccc(OC(=O)c2ccccc2C(=O)OCC(F)(F)C(F)F)cc1
-0.4%	1	7%	-4%	N=C1C(c2ccccc2)=C(O)CN1c1ccccc1N1CCOCC1
14%	/	-3%	/	O=C(CCNS(=O)(=O)c1ccccc1)OCc1nnc(-c2ccccc2)o1
0.1%	/	22%	2%	COc1ccc(CN2CCN(C(=O)c3ccc(F)cc3)CC2)c(OC)c1
0.9%	/	-11%	1%	Cc1ccc(CNC(=O)CN2C(=O)c3ccccc3S2(=O)=O)cc1
0.1%	-10	-19%	-5%	O=C(CN1CCOCC1)N/N=C/c1ccc(-c2cccc(Cl)c2Cl)o1
0.2%	-2	15%	-3%	COc1ccc(S(=O)(=O)Nc2nc3n(n2)C(c2ccc(Cl)cc2)CC(=O)N3)cc1 (configuration not stated)
-2.3%	-4	25%	9%	COc1ccc(-c2c(-c3ccc(O)cc3O)n[nH]c2C(F)(F)F)cc1
0.0%	-10	6%	1%	COc1cc(C(=O)Nc2ccc3oc(-c4cccnc4)nc3c2)cc(OC)c1OC
-0.7%	4	?	23%	COc1cccc(CN2CCN(Cc3cccc4c3OCO4)CC2CCO)c1 (configuration not stated)
0.7%	/	0%	/	CC(=NNC(=S)N(Cc1ccccn1)Cc1ccccn1)c1cnccn1
-5.6%	16	-12%	0%	CSC1=N/C(=C\c2c(F)cccc2Cl)C(=O)S1
-0.4%	/	12%	2%	Cc1cccc(SC2CCN(C(=O)C3CCC(=O)N(C4CC4)C3)CC2)c1 (configuration not stated)
5.4%	-11	12%	-3%	CC(=O)Nc1cccc(Oc2cc(C#N)c(C#N)cc2N2CCCCCC2)c1
-1.2%	3	-5%	1%	O=C(COC(=O)C1CC(=O)N(Cc2ccccc2)C1)c1ccc(F)cc1 (configuration not stated)
-2.0%	4	-3%	-26%	c1cnc2ccc3ncccc3c2c1
-1.4%	/	0%	-1%	CC(C)[C@H](NC(=O)C1CCN(S(=O)(=O)c2ccccc2)CC1)C(=O)NCc1ccccc1
-1.1%	3	-3%	-6%	CCCCn1cnc2c(=S)nc(N)[nH]c21
-0.3%	/	11%	/	CN(C(=O)c1cccc(NC(=O)Cc2cccc(NC(=O)C3CCCN(C(=O)CCc4ccccc4)C3)c2)c1)C1CCC1 (configuration not stated)
-0.2%	6	-1%	1%	COc1cccc(C(=O)Cn2c(=O)n(CC3CCCO3)c(=O)c3ccccc32)c1 (configuration not stated)
-0.9%	/	7%	/	COc1ccc(-c2csc(NC(=O)c3c(C)noc3C)n2)cc1F
0.5%	-21	-2%	-7%	CC1CN(S(=O)(=O)c2cccc(C(=O)Nc3ccc(S(=O)(=O)Nc4ncccn4)cc3)c2)CC(C)O1 (configuration not stated)
1.6%	-5	?	-4%	O=S(=O)(N1CCCCC1)N1CCCN(S(=O)(=O)N2CCCCC2)CC1
0.9%	0	17%	-8%	O=C(Nc1ccc(F)cc1)c1cccc2c1C(=O)N(Cc1ccccn1)C2
?	-1	?	-29%	COc1ccc(C(=O)/C=C/Nc2ccc(S(=O)(=O)Nc3nc(C)cc(C)n3)cc2)cc1OC
0.2%	/	2%	-9%	Cc1cc(F)ccc1NC(=O)Nc1ccc2c(c1)OCO2
-1.2%	/	7%	?	Cc1cccc(C)c1NC(=O)c1nc(S(=O)(=O)Cc2ccccc2)ncc1Cl
-4.8%	/	3%	/	NNC(=O)C1SCCN1S(=O)(=O)c1ccc(Cl)cc1 (configuration not stated)
-5.3%	/	-11%	/	CCc1cccc(OCC(=O)Nc2cc(Cl)ccc2-n2cncn2)c1
0.1%	/	6%	/	Cc1cc(NC(=O)CCC(=O)N(CC(=O)NC2CCCC2)c2cccc(C)c2C)no1
0.8%	/	0%	/	CCOc1ccccc1C(=O)NCC(=O)OCC(=O)N1CCCC1
/	7	/	0%	COc1ccc(-c2cc(C(F)(F)F)n3ncc(C(=O)Nc4c(C)n(C)n(-c5ccccc5)c4=O)c3n2)cc1
7.1%	-1	33%	0%	CCOC(=O)c1c(C)n(-c2ccc(C)cc2)c2c(C(C(C)=O)C(=O)O)c(Br)c(O)c(O)c12 (configuration not stated)
0.8%	/	12%	-2%	COc1cc(/C=N/n2nnnc2N)ccc1OC(C)=O
-3.4%	/	22%	0%	CCc1c(C)nc(N2CCN(c3ccc(Cl)cc3)CC2)[nH]c1=O
4.4%	-8	-16%	-37%	Cn1nnc2cc(C(=O)Nc3ccccc3)ccc21
1.2%	3	-9%	-19%	CC(NC(=O)c1ccc(Cl)cc1)C(=O)N1CCCCC1 (configuration not stated)
-2.1%	-5	2%	-1%	CC(=O)N(CCCCl)C(C#N)c1ccccc1 (configuration not stated)
4.6%	3	15%	-4%	COc1ccc(Cl)cc1C(=O)Nc1nnn(C)n1
0.1%	/	-7%	-3%	COCCNC(=O)CN(Cc1ccc(F)cc1)C(=O)CCC(=O)Nc1nccs1
-0.7%	3	0%	-10%	CCCN1C2CCCC1CC(NC(=O)c1ccc(F)cc1)C2 (configuration not stated)
0.7%	0	-16%	-4%	Cc1cc(C(=O)Nc2c(C)nn(Cc3ccccc3Cl)c2C)no1
-0.5%	-7	-7%	0%	Cc1ccc2[nH]c(O)c(N=NC(=O)CCc3ccccc3)c2c1Br
-1.7%	-1	-13%	-4%	O=C(O)c1ccccc1C(=O)NCCc1c(C(=O)O)[nH]c2ccc(Cl)cc12
1.8%	-1	14%	0%	CC(=O)Nc1ccc(NS(C)(=O)=O)cc1
-1.1%	/	-4%	/	COc1ccccc1NC(=O)C(C)OC(=O)/C(=C/c1ccccc1)NC(C)=O (configuration not stated)
4.0%	-8	-21%	-4%	O=C(Nc1ccc(O)c(-c2nc3ccccc3s2)c1)c1cc(=O)c2ccccc2o1
0.8%	4	3%	-1%	COC(=O)CN(c1ccc(Cl)cc1C)S(C)(=O)=O
-0.1%	/	3%	/	COc1ccc(NC(=O)COc2ccc3c(c2)CCC3)cc1S(N)(=O)=O
0.5%	-28	-1%	-24%	Cc1ccccc1/C=N/Nc1ccc(Cl)nn1
-1.9%	-23	-3%	-24%	COc1ccc(C(=O)NC(=S)NC(C)(C)C)cc1Br
8.9%	3	0%	-18%	Cc1cc(Br)ccc1NC(=O)C1CCCO1 (configuration not stated)
-2.2%	8	16%	-3%	C#CCOCCOCCOCCNc1nc(N2CCN(C(=O)Cn3cc(CCCCN)nn3)CC2)nc(N2CCN(C(=O)[C@H](C(C)C)n3cc(CCO)nn3)CC2)n1
-3.8%	/	17%	-6%&-15%	Cc1ccc(NC(=O)c2cc(-c3ccc4c(c3)OCO4)on2)cc1
-0.7%	/	-9%	/	CN(Cc1ccc(F)cc1)C(=O)C(Cc1ccccc1)NC(=O)c1ccccc1 (configuration not stated)
-0.2%	/	9%	-7%	Cc1ccccc1C(=O)Oc1cccc2c(O)cccc12
-6.4%	-8	-5%	-2%	CCN(C(=O)c1c(-c2ccccc2)noc1C)c1ccccc1
-3.9%	4	10%	-11%	CC1CCCC/C1=N\Nc1ccc(S(N)(=O)=O)cc1[N+](=O)[O-] (configuration not stated)
2.2%	-2	4%	0%	CN=CC1=C(O)C(C(=O)OC)C(C)(C)CC1=O (configuration not stated)

Complete entries from above:
CC(=O)Nc1ccc(NS(C)(=O)=O)cc1 is entered as Rango complex inh = 1.8%; GLA inh pH 4.5 = -1; Rango dissoc inh = 14%; miR-21 reporter = 0%
CN=CC1=C(O)C(C(=O)OC)C(C)(C)CC1=O (configuration not stated) is entered as Rango complex inh = 2.2%; GLA inh pH 4.5 = -2; Rango dissoc inh = 4%; miR-21 reporter = 0%
COCCNC(=O)CN(Cc1ccc(F)cc1)C(=O)CCC(=O)Nc1nccs1 is entered as Rango complex inh = 0.1%; GLA inh pH 4.5 = /; Rango dissoc inh = -7%; miR-21 reporter = -3%

Later entries:
Rango complex inh	GLA inh pH 4.5	Rango dissoc inh	miR-21 reporter	Structure
-0.8%	0	7%	-4%	CC1=NN(/C(=N\c2nnc(C)s2)Nc2ccccc2)[C@H](c2ccc(C)cc2)S1
-0.8%	/	0%	1%	CC(C)n1cc(C(N)=S)c(=O)n(Cc2ccccc2)c1=O
?	/	23%	/	CCN1C(=O)[C@H]2[C@@H](c3ccc(-c4ccc(F)cc4)cc3)N[C@@](CC(C)C)(C(=O)OC)[C@H]2C1=O
-1.3%	/	0%	2%	CCCNC(=O)c1cc(-c2ccccc2)c(N2CCCCC2)s1
-0.6%	/	1%	-16%	C=CCn1cccc(C(=O)Nc2ccc(Cl)cc2)c1=O
1.2%	-4	-24%	-6%	CCN1C(=O)S/C(=C/c2ccc(Oc3ccc([N+](=O)[O-])cn3)c(OC)c2)C1=O
-1.4%	/	6%	/	Cc1ccc(NS(=O)(=O)c2cccc(C(=O)NCC(c3ccc(F)cc3)N3CCOCC3)c2)cc1 (configuration not stated)
/	6	/	0%	CCCOC(=O)c1cc(NC(=O)/C=C/c2ccccc2)ccc1O
0.1%	-15	-10%	-3%	COc1ccc(S(=O)(=O)N(CCCN2CCOCC2)Cc2cccc3ccccc23)cc1
0.6%	7	-4%	-61%	O=C(c1cc(-c2ccccc2O)on1)N1CCc2ccccc2C1
0.5%	/	-4%	-6%	CCOc1ccc(CCNC(=O)CS(=O)Cc2nc(-c3ccccc3Cl)oc2C)cc1OCC (configuration not stated)
2.4%	3	15%	-1%	CC(NC(=O)c1ccc(Cl)c(Cl)c1)c1ccc(-c2ccccc2)cc1 (configuration not stated)
1.0%	/	1%	-26%	O=C(NCCc1ccc(Cl)cc1Cl)c1cc([N+](=O)[O-])c[nH]c1=O
9.7%	-3	9%	-8%	Cc1ccc(NC(=O)CSc2n[nH]c(N)n2)cc1S(=O)(=O)N1CCOCC1
1.6%	2	-10%	3%	COc1ccc(C)cc1-n1nnnc1SCC1CCCO1 (configuration not stated)
4.5%	/	9%	/	COc1cc(OC)cc(C(=O)NC(C(=O)Nc2ccc3c(c2)CCC3)C(C)C)c1 (configuration not stated)
-0.2%	1	13%	-1%	Cc1ccc(S(=O)(=O)NNC(=O)Nc2ccc(Cl)cc2)cc1
/	3	/	-32%	Cc1cc2nc(-c3ccccn3)c(-c3ccccn3)nc2cc1C
-3.2%	-26	2%	0%	COCCN(C(=O)c1ccccc1OC)c1nnc(C)s1
?	-2	0%	12%	CCN1C(=O)S/C(=C/c2ccc(Sc3nc4ccccc4[nH]3)o2)C1=O
-4.8%	3	3%	-42%	CNc1c(N)c(=O)oc2ccccc12
-1.4%	-3	-3%	0%	COc1ccc(C(=O)Nc2ccccc2C(=O)N/N=C/c2ccncc2)cc1OC
-0.8%	/	-4%	/	CC1CCN(C(=O)COC(=O)C23CC4CC(CC(O)(C4)C2)C3)CC1
3.1%	-7	-6%	-10%	CCc1ccccc1N1CCN(S(=O)(=O)c2ccc(F)c(C)c2)CC1
4.2%	/	-7%	/	COc1cc(C(=O)NCCc2ccc(S(N)(=O)=O)cc2)ccc1OCc1c(C)noc1C
-1.9%	/	-11%	0%	Cc1ccc(S(=O)(=O)N(C)C)cc1NC(=O)C(C)NC(C)c1cccs1 (configuration not stated)
2.8%	-9	2%	0%	O=C(CSc1nc2c(c(=O)[nH]1)CCC2)Nc1cccc(Cl)c1

Entries shown so far containing a thiophene ring, fused or not, in the order listed:
Rango complex inh	GLA inh pH 4.5	Rango dissoc inh	miR-21 reporter	Structure
-1.3%	/	0%	2%	CCCNC(=O)c1cc(-c2ccccc2)c(N2CCCCC2)s1
-1.9%	/	-11%	0%	Cc1ccc(S(=O)(=O)N(C)C)cc1NC(=O)C(C)NC(C)c1cccs1 (configuration not stated)
